Screening data: PubChem BioAssay, several laboratories
RecA splice inh = blocks M. tuberculosis RecA intein splicing. P9WHJ3. cell-free RecA intein splicing, fluorescence. inhibition, %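 (about 9 µM by stock and volumes)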. 0.75% of 290,000 active. AID 2221; in the data active = inhibition above about 30%; inconclusive = no clear call, values can overlap the other calls;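 note: 0% = vehicle wells and 100% = reference inhibitor control wells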
Target sequence (P9WHJ3 whole entry, looked up, canonical isoform): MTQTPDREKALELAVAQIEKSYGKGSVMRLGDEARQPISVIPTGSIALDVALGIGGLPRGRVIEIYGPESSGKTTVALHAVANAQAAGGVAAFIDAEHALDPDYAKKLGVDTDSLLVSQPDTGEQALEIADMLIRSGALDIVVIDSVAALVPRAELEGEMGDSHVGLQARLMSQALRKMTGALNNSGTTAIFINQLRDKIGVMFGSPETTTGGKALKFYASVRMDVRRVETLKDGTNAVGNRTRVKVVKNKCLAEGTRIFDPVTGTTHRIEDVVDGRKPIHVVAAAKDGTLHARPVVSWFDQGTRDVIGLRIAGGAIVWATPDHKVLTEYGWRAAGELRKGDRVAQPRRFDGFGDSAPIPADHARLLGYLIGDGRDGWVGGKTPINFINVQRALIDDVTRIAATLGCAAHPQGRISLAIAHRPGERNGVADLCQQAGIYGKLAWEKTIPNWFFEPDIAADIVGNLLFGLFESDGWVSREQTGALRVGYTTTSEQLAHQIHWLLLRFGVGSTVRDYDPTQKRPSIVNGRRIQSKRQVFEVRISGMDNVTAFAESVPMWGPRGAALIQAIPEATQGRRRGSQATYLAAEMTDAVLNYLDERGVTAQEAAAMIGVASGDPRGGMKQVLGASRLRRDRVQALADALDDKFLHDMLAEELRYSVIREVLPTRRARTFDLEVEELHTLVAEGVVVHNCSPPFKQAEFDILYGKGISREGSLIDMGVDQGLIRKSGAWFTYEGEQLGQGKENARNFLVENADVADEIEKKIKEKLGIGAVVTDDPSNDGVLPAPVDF
Mtb betalactam = beta-lactam sensitization of Mtb H37Rv; M. tuberculosis H37Rv growth with meropenem, percent inhibition; hits of this screen are not shown here; inhibition, % at 25 µM; 0.27% of 330,000 active; AID 434955;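 active = about 74% or more and at least 40 points above the plate without the antibiotic, then above 30% in a dose series; inconclusive = first-round hits that could not be retested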;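 note: growth measured after seven days incubation then overnight dye step; 0% = bacteria only wells and 100% = bacteria with antibiotic; twin plates without the antibiotic show which effects depend on it; some results filed as inactive read as strong as hits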
Mtb growth = M. tuberculosis H37Rv growth inhibitors, H37Rv strain (AID 1626) | M. tuberculosis H37Rv growth inhibition; higher % means a stronger effect | one-dose inhibition, % at 10 µM; IC50 in µM for titrated hits | 0.95% of 220,000 active;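 active = confirmed in a dose series; inconclusive = inhibition above 80% but not taken into the dose series; inactive = below 80% or under 30% at every dose of the series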;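 note: bacteria incubated seven days before Alamar blue readout; 0% = bacteria only wells and 100% = bacteria with antibiotic wells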
YopH PTP inh = blocks Yersinia enterocolitica YopH tyrosine phosphatase; fluorescence Ex485/Em525; inhibition, %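 (about 10 µM by stock and volumes)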; 0.16% of 140,000 active; AID 898;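 active = inhibition of 50% or more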;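 note: controls were vehicle for no effect and minimum signal wells for full effect; inactives centre near -20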
Arbovirus anti = antivirals against arbovirus infection; inhibition, % at 10 µM; arbovirus infection cell-based antiviral screen; 0.37% of 200,000 active; AID 1251;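 active = inhibition from about 30%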;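 note: bluetongue infection of BSR cells; cell survival read as ATP light after 72 h; 0% = infected wells without compound and 100% = uninfected wells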
The depositor's hits bear a star; ? = inconclusive; nt = no result given. This is a subset; rates above refer to the full screens.

SMILES	RecA splice inh	Mtb betalactam	Mtb growth	YopH PTP inh	Arbovirus anti
COc1ccc(N2CC(=O)N(c3ccccc3)C2=S)cc1	-0.2	0	0%	-28	-6
CC1CCC(C(=O)NC(C(=O)NCCc2ccc(S(N)(=O)=O)cc2)C(C)C)CC1 (centres undefined)	3.6	1	nt	nt	nt
CN(C)CC(O)COC(c1ccccc1)c1ccccc1 (centres undefined)	-0.4	-3	9%	nt	2
Cc1sc2nc(C)n(/N=C/c3ccccc3O)c(=O)c2c1C	-4.8	-9	-7%	-12	0
COc1ccc(N2CCCC2)c(NC(=O)COc2ccccc2Cl)c1	0.0	-3	nt	nt	nt
Cc1ccc(NC(=O)CCSCCC(=O)Nc2ccc(C)c(C)c2)cc1C	4.0	-6	7%	7	-5
O=[N+]([O-])c1ccc(C(O)CNC(=S)Nc2ccccc2)cc1 (centres undefined)	0.0	3	-12%	nt	6
COC(=O)CN(c1cc(Cl)ccc1OC)S(=O)(=O)c1ccc(C)cc1	-0.4	-5	-6%	nt	nt
Cc1nn(-c2ccccc2)c(C)c1CCC(=O)O	-2.6	-2	1%	-22	4
COc1ccc(N2CCN(CCCNC(=O)Cn3c(=O)c4cccn4c4cccnc43)CC2)cc1	-0.8	-2	nt	nt	nt
O=C(COc1cccc2cccnc12)N/N=C/c1cccn1-c1ccc(F)cc1	-3.3	8	10%	nt	nt
COc1ccc(-c2nc(C#N)c(N3CCOCC3)o2)cc1OC	1.8	-9	-1%	-22	-5
CC(=O)N[C@H]1C[C@@H]1c1ccccc1	-1.4	-5	1%	8	2
CCOC(=O)Nc1csnn1	0.0	nt	2%	nt	nt
O=C(NNC(=O)C1CCN(c2ncccn2)CC1)c1ccncc1	-0.4	-2	-4%	nt	-3
O=C(NC1CCN(Cc2ccccc2)CC1)c1ccc2c(c1)[nH]c(=O)n2Cc1ccc(F)cc1	2.0	9	-5%	nt	-28
Cc1ccc(CSc2nnc(-c3ccc(NS(=O)(=O)c4ccccc4)cc3)o2)cc1	11	4	12%	-14	-29
CCCc1cc(=O)n2c([nH]c3ccccc32)c1C#N	-1.0	-5	-9%	-20	-21
CCCCOc1ccc(/C=N/Nc2cc(N3CCOCC3)nc(C)n2)cc1	1.8	93	nt	nt	nt
Nc1nc(F)nc2c1ncn2[C@@H]1O[C@H](CO)[C@@H](O)[C@H]1O	2.6	99	2.6µM*	nt	nt
CCOC(=O)c1ccc(NC(=O)CCc2nc(-c3ccccc3Cl)no2)cc1	6.2	98	0.51µM*	-24	-15
CN(Cc1ccccc1)C(=O)N1CCOCC1	3.1	-3	-3%	nt	nt
Cc1cccc(C(=O)N2CCN(c3ccc(C(F)(F)F)cn3)CC2)c1C	3.4	10	7%	10	12
COc1cc(/C=N/NC(=O)c2cccc([N+](=O)[O-])c2)ccc1OC(=O)c1ccco1	3.3	-3	6%	nt	18
Cn1c(SCC(=O)NCc2cccs2)nnc1-c1ccc(O)cc1	-1.8	-2	1%	nt	3
O=C(Nc1ccccc1)c1ccc(-c2ccc(F)cc2)s1	-1.0	91	71%	nt	3
CCCCCCCC(=O)Nc1ccc(S(=O)(=O)Nc2nccs2)cc1	-1.2	86	?	-25	10
O=C(OCc1ccc(Br)cc1)c1cnc(Cl)c(Cl)c1	9.3	96	nt	nt	nt
CC(C)Oc1ccc(Cc2c(O)nc(NCCCN(C)C)[nH]c2=O)cc1	1.9	-1	-15%	-141	-1
c1ccc(Cc2nnc(-c3ccccc3)o2)cc1	-1.0	1	4%	-23	-2
NC(=O)NCCCC(NC(=O)c1ccc(C#CC2(O)CCCCC2)cc1)C(=O)O (centres undefined)	-2.2	5	3%	nt	9
COC(=O)c1ccc(N)cc1O	-3.5	81	56%	9	6
Cc1ccccc1-c1ccc(=O)n(CC(=O)Nc2ccc(N3CCOCC3)cc2)n1	-0.8	-1	7%	-47	7
COc1ccc(C)cc1NC(=O)C1CC(=O)N(CCc2ccccc2)C1 (centres undefined)	4.1	8	22%	nt	21
N#Cc1c(=O)c2nc(NCc3ccccc3)ncc2n2ccccc12	nt	5	-2%	-10	10
CCCCCN(C(=O)NC(=O)Nn1cnnc1)S(C)(=O)=O	-0.1	2	-5%	-32	3
Cc1ccc2nc(C(=O)N3CCCC(Nc4ccc(F)cc4)C3)cn2c1 (centres undefined)	-0.7	-11	nt	nt	nt
O=C(CNC(=O)c1ccccc1Cl)Nc1ccc(F)cc1	-3.8	0	2%	-4	-2
NS(=O)(=O)c1ccc(NC(=O)c2ccc(F)cc2F)c(NC(=O)c2ccc(F)cc2F)c1	-2.3	-6	nt	nt	nt
O=C(Cn1cnc2scc(-c3ccccc3)c2c1=O)NCc1ccco1	3.3	4	-6%	nt	-6
COCCOn1c(SCCOC)nc2ccccc2c1=O	5.3	14	4%	nt	nt
Cc1ccc(N(CC(=O)NCC2CCCO2)S(=O)(=O)c2ccccc2)c(C)c1 (centres undefined)	-1.5	4	nt	nt	nt
Nc1ncc2c(n1)-c1ccccc1CC2	0.1	-11	4%	nt	5
O=C(COC(=O)CCc1nc2ccccc2c(=O)[nH]1)Nc1ccc2c(c1)OCO2	-0.3	-2	1%	nt	nt
CNC(=O)c1ccc(Nc2nnc(-c3ccc(C)c(S(N)(=O)=O)c3)c3ccccc23)cc1	-1.2	5	nt	nt	nt
Cc1nn(-c2ccccc2)c(N)c1N=Nc1cccnc1	0.9	16	-13%	nt	-16
COc1ccc(C(=O)COc2ccc(F)cc2)c(O)c1C	nt	-7	0%	nt	0
O=c1[nH]c(CN2CCOCC2)nc2ccccc12	1.5	2	-7%	nt	19
COc1cc(NC(=O)c2cccnc2Sc2ccc(Cl)cc2)cc(OC)c1OC	-3.0	0	-5%	-5	-4
Cc1cc(C)nc(NC(=O)Cc2ccc(Br)cc2)n1	5.8	-6	-8%	nt	1
CC(=O)Nc1nc(C)nc(C)c1C(C)=O	0.6	7	-6%	-33	0
CCN(CCO)C(=O)C12CCC(C)(C(=O)C1)C2(C)C (centres undefined)	0.7	2	-1%	8	9
Cc1cc(C)c(S(=O)(=O)N2CCCC2CNC(=O)c2ccc3c(c2)OCO3)c(C)c1 (centres undefined)	2.7	0	nt	nt	nt
CCc1ccc(NC(=O)C(CC)c2ccccc2)cc1 (centres undefined)	1.3	4	-2%	-10	2
CCCCNC(=O)[C@@H]1CC=C[C@@H]2CCN(C3CC3)C(=O)[C@@H]21	-4.8	-2	-8%	nt	nt
Cc1c(C(=O)N2CCOCC2)c(S(=O)(=O)Nc2cccc(C#N)c2)c(C)n1C	-1.7	3	nt	nt	nt

More results follow.
SMILES	RecA splice inh	Mtb betalactam	Mtb growth	YopH PTP inh	Arbovirus anti
COc1ccccc1NC(=O)CC1COc2ccccc2O1 (centres undefined)	-5.0	5	-6%	-80	0
CCC1(CC)C(=O)C2=C3C1[C@H](C(=O)OC)CC(C(=O)OC)C[C@H]3n1c(=O)n(-c3ccccc3)c(=O)n1[C@H]2C (some centres undefined)	-0.3	3	-3%	nt	nt
CN(C)c1ccc(/C(=N\O)C(F)(F)F)cc1	-0.2	-1	1%	2	15
Cc1cccc(OCC(=O)NCC(=O)N/N=C/c2cccnc2)c1	0.1	1	0%	nt	nt
CCC(=O)N1CCc2cc(S(=O)(=O)NC(C(=O)NCc3ccccc3)C(C)C)ccc21 (centres undefined)	-2.7	11	-4%	-16	2
NNC(=O)c1csc(COc2cc(Cl)cc(Cl)c2)n1	-1.0	2	-2%	nt	nt
Cn1ccnc1SCCC#N	-4.3	-17	-4%	-22	-6
CC(C)CN(C(=O)CC1CCCC1)c1c(N)n(Cc2ccccc2)c(=O)[nH]c1=O	1.1	2	nt	nt	nt
NCC(O)COCCC12CC3CC(CC(C3)C1)C2 (centres undefined)	-2.0	-2	2%	9	0
O=C(O)c1cnc(N2CCOCC2)nc1	12	2	3%	nt	9
COC(=O)[C@H](CCSC)NC(=O)Nc1cccc(C)c1C	-0.9	5	-6%	nt	nt
O=C(CCCC(=O)OCC(=O)c1cccs1)Nc1ccc(Oc2ccccc2)cc1	3.5	97	17µM*	-36	3
C=CCn1c(=S)sc2c(=O)[nH]cnc21	-1.7	-5	-3%	nt	nt
CCOc1ccc(C(C(=O)NC2CCCCC2)N(C(=O)Cc2cccs2)c2ccc(-n3cnnn3)c(OC)c2)cc1 (centres undefined)	-6.3	73	9%	-16	-11
CC(=O)Oc1ccc(C(=O)Nc2cccc(C(=O)c3ccc(C)c(C)c3)c2)cc1	-1.1	13	nt	nt	nt
CCn1c(C)c(C(C)=O)c(N2CCCCC2)nc1=S	1.1	-14	-8%	-25	-2
C/C(=N\NC(=O)Cc1ccc(Cl)cc1)c1cccnc1	1.7	-6	nt	nt	nt
CN(C)C(=O)CN(C)S(=O)(=O)c1ccc(Cl)cc1	0.9	-11	0%	12	3
CCOc1cc2c3c(c1)C1(C(=O)N3C(C)(C)CC2C)C(C#N)=C(N)N2C(=C1C#N)Nc1ccccc12 (centres undefined)	-0.2	89	?	-16	-16
CCN1C(=O)[C@H]2[C@@H](c3ccc(-c4ccc(Cl)c(Cl)c4)c(OC)c3)N[C@@](C)(C(=O)OC)[C@H]2C1=O	5.7	51	nt	nt	nt
COc1ccc(CNC(=O)COC(=O)CN2C(=O)COc3ccccc32)cc1	0.3	-5	nt	nt	nt
Cc1ccc(-c2nc3ccccc3c(=O)n2NC(=S)N(C)C)cc1	-0.4	4	2%	-25	-7
O=C(O)c1nn(CC(=O)N(C2CCCCC2)C2CCCCC2)c(=O)c2ccccc12	-0.6	-4	-9%	nt	1
COc1ccccc1C(=O)NCCC(=O)N1CCN(C(C)=O)CC1	2.1	2	nt	nt	nt

Next part; it opens with the four that closed the last part.
SMILES	RecA splice inh	Mtb betalactam	Mtb growth	YopH PTP inh	Arbovirus anti
COc1ccc(CNC(=O)COC(=O)CN2C(=O)COc3ccccc32)cc1	0.3	-5	nt	nt	nt
Cc1ccc(-c2nc3ccccc3c(=O)n2NC(=S)N(C)C)cc1	-0.4	4	2%	-25	-7
O=C(O)c1nn(CC(=O)N(C2CCCCC2)C2CCCCC2)c(=O)c2ccccc12	-0.6	-4	-9%	nt	1
COc1ccccc1C(=O)NCCC(=O)N1CCN(C(C)=O)CC1	2.1	2	nt	nt	nt
O=C(Nc1ccc(C(=O)N2CCN(c3ccc(Cl)cc3)CC2)cc1)C1=CSCCO1	1.6	-7	nt	nt	nt
CCOC(=O)N1CCN(C(=O)c2ccc3nc(N4CCCCC4)sc3c2)CC1	-0.1	-5	-6%	-38	-1
Oc1ccccc1-c1nc(/C=C/c2ccccc2)nn1-c1ccccc1	1.0	13	16µM*	-9	11
CCOC(=O)Cc1csc(NC(=O)/C=C/c2ccc(OC)cc2)n1	1.0	69	56%	nt	-20
O=C(c1ccc([N+](=O)[O-])cc1)N1CCSC1c1ccccc1 (centres undefined)	-0.6	-2	5%	-8	1
O=C(/C(=C/O)N=Nc1ccccc1)c1ccncc1	0.4	8	-10%	-28	10
CC(NC(=S)NCCc1ccccc1)C(c1cccs1)N1CCN(Cc2ccccc2)CC1 (centres undefined)	-0.2	27	21%	-24	-14
CCCCNC(=O)CSc1nc2ccsc2c(=O)n1C1CCN(C(=O)OCC)CC1	-1.4	-5	-4%	8	9
O=C(CN(Cc1cccs1)C(=O)CNS(=O)(=O)c1ccc(F)cc1)NCc1ccco1	-0.4	-7	-2%	-37	16
C/C=C/C=C/C(=O)N1CC[C@]23c4ccccc4N[C@H]4N(C)c5cccc6c5[C@]42CCN([C@H]6C2OC2(C)C)[C@H]13 (some centres undefined)	4.8	-10	18%	nt	nt
O=C(NC1CCS(=O)(=O)C1)c1cccc(S(=O)(=O)N2CCCCCC2)c1 (centres undefined)	3.9	4	4%	nt	2
O=C(CC(O)(C(F)(F)F)C(F)(F)F)Nc1ccc(Cl)c(Cl)c1	nt	100	?	-7	-45
CN(CCOc1ccccc1)C(=O)CCc1c[nH]c2ccccc12	2.0	-1	nt	nt	nt
CCOC(=O)c1c(NC(=O)CSc2ncn[nH]2)sc(C(=O)N(C)C)c1C	-5.4	-18	nt	nt	nt
CC(C)N(C(=O)CSc1nnc(NC(=O)Cc2cccs2)s1)C(C)C	0.8	-3	6%	nt	15
O=C(NCCS(=O)(=O)N1CCN(c2ccccc2)CC1)c1cccc(F)c1	1.3	-11	nt	nt	nt
